# Source: PubChem BioAssay
# RN4220 kill = kills Staphylococcus aureus RN4220; 330,000 compounds, 0.33% hits; AID 1259311; inhibition, % (no concentration beside the values); S. aureus RN4220 growth, OD600, 16 h;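 active means z-score of -3 or lower and OD600 up to 0.18 on both plates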;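 further: plate controls were untreated cells for no effect and reference antibiotic for full effect; stock transfer was 100 nL into about 80 µL; one replicate is shown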
# Bead autofluor = compound fluorescence in toxin protease inhibitor counterscreen; compound autofluorescence counterscreen, microsphere flow cytometry; active compounds read high; fluorescence intensity (test concentration not listed); 360,000 compounds, 3.1% hits; AID 624483;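 active means at least 3 SD above the mean of all compounds, about 16000 in these data; inconclusive means too few beads counted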;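 further: 100 nL of 1 mM stock went into each well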
# Mtb hypoxia rep = inhibitors of hypoxia-regulated fluorescent reporter in Mycobacterium tuberculosis | M. tuberculosis hypoxia-regulated fluorescent reporter, fluorescence | fluorescence inhibition, % (test concentration not listed) | 300,000 compounds, 0.1% hits | AID 1159583;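 active means 35 to 45% if threefold the growth effect, above 45% if 1.5-fold the growth effect; inactive means the rest, general growth blockers included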;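 further: wells of about 50 µL received 100 nL stock; 0% = vehicle wells and 100% = reference inhibitor wells; whole bacteria with a GFP reporter of the hypoxia response; strong numbers were not always called active; many hits fall short of the cut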
# BJeLR lethal = kills HRASV12-expressing BJeLR cells. BJeLR (HRASV12) viability, CellTiter-Glo ATP luminescence, 48 h; reference of the scale not given here. inhibition, % (no concentration beside the values). 300,000 compounds, 0.17% hits. AID 1554;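 active means replicate mean above 50%; inconclusive means above 50% but judged a plate artefact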;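 further: 50 nL library stock added to about 25 µL; numbers are from one replicate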
# Sa ugtP lethal = growth inhibition of S. aureus ugtP deletion strain. S. aureus RN4220 ugtP deletion, OD600 growth, 16 h; some inactives read as strong as hits. growth inhibition, % (concentration not given with the values). 330,000 compounds, 0.54% hits. AID 1259309;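 active means z-score under -3 and OD600 up to 0.15 on both plates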;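 further: plate controls were untreated wells for no effect and antibiotic for full effect; wells of about 80 µL received 100 nL stock; the first replicate is given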
# PrP UTR inh = inhibition of PrP 5' UTR reporter expression; inhibition, % (test concentration not listed); 340,000 compounds, 0.35% hits; cell-based PrP 5' UTR mRNA reporter, plate reader;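 active means every replicate at 50% or more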;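 further: 0 = median of the neutral control wells; tested in H4 reporter cells; numbers are from one replicate; inactives centre near -14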
# Mtb hypoxia rep growth = second read-out of Mtb hypoxia rep, no call of its own (marks repeat the call); growth inhibition, %; measured here: M. tuberculosis growth (absorbance);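 0% = vehicle and 100% = reference antibiotic; read after six days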
# * = called active by the depositor; ? = inconclusive; nt = not tested or not shown.
# Sample of the layout, five compounds:
1	Cc1ccc(C)c(N2CCN(C(=O)CCc3nc(-c4ccc(F)cc4)no3)CC2)c1
2	CCOC(=O)Cc1csc(NC(=O)C(C)Oc2ccc3c(C)cc(=O)oc3c2)n1 (stereo not given)
3	CC(C)NC(=S)N1CCN(C(c2ccccc2)c2ccccc2)CC1
4	CNc1snc(C)c1C(=O)OCC(=O)c1ccc(OC)c(F)c1
5	O=C(COC(=O)c1ccc(Cl)nc1)Nc1cccnc1Cl

entry no.	1	2	3	4	5
Bead autofluor	3697	3188	2548	8509	?
PrP UTR inh	-30	10	-11	-15	3
Mtb hypoxia rep	-6	3	-3	9	11
Sa ugtP lethal	2	3	19	1	3
Mtb hypoxia rep growth	8	3	11	1	1
BJeLR lethal	nt	2	0	nt	-4
RN4220 kill	3.9	7.7	-4.9	4.8	1.4

# This part in full (from the top)
1	Cc1ccc(C)c(N2CCN(C(=O)CCc3nc(-c4ccc(F)cc4)no3)CC2)c1
2	CCOC(=O)Cc1csc(NC(=O)C(C)Oc2ccc3c(C)cc(=O)oc3c2)n1 (stereo not given)
3	CC(C)NC(=S)N1CCN(C(c2ccccc2)c2ccccc2)CC1
4	CNc1snc(C)c1C(=O)OCC(=O)c1ccc(OC)c(F)c1
5	O=C(COC(=O)c1ccc(Cl)nc1)Nc1cccnc1Cl
6	CCN(CC)S(=O)(=O)c1ccc(NC(=O)Cc2cccs2)cc1
7	O=C(N/C(=C/C=C\c1ccccc1)C(=O)N1CCOCC1)c1ccc(Br)cc1
8	COc1cc2nc(N(CCN(C)C)C(=O)c3ccc(S(=O)(=O)N(C)CC4CCCO4)cc3)sc2cc1OC (stereo not given)

entry no.	1	2	3	4	5	6	7	8
Bead autofluor	3697	3188	2548	8509	?	5018	3137	6013
PrP UTR inh	-30	10	-11	-15	3	-32	-5	-7
Mtb hypoxia rep	-6	3	-3	9	11	0	-2	1
Sa ugtP lethal	2	3	19	1	3	6	13	0
Mtb hypoxia rep growth	8	3	11	1	1	-1	15	12
BJeLR lethal	nt	2	0	nt	-4	-1	4	-11
RN4220 kill	3.9	7.7	-4.9	4.8	1.4	3.1	2.8	-0.6

9	O=C(c1nn2c(C(F)(F)F)cc(-c3ccccc3)nc2c1Cl)N1CCN2CCCC2C1 (stereo not given)
10	CSc1n[nH]c(=O)n1C1CCCCC1
11	Cc1cc(NC(=O)CSc2ccc(-c3cccc([N+](=O)[O-])c3)nn2)no1
12	CCOCc1cc(C2NC(=O)NC(C)=C2C(=O)OCC)ccc1OC (stereo not given)
13	O=S(=O)(NCc1ccc(F)cc1)c1ccccc1Br
14	CCCCC1CN2CCc3c([nH]c4ccccc34)C2(C)C1 (stereo not given)
15	COc1ccc(N2CCN(C3CCCN(C(=O)c4ccoc4)C3)CC2)cc1 (stereo not given)
16	COc1ccc(CNC(=O)COc2ccc(Br)c(C)c2)cc1

entry no.	9	10	11	12	13	14	15	16
Bead autofluor	5648	4569	4017	2528	3693	4232	6271	3847
PrP UTR inh	-22	-17	-28	-18	-28	-27	-7	-17
Mtb hypoxia rep	-1	4	2	nt	12	0	1	7
Sa ugtP lethal	9	7	3	-5	-2	9	-3	4
Mtb hypoxia rep growth	1	3	8	nt	5	6	11	9
BJeLR lethal	2	5	-1	-6	nt	-27	-3	-1
RN4220 kill	3.7	3.9	6.1	2.6	2.9	-2.1	0.5	-3.4

17	COc1ccc2c(Cl)c(C(=O)NN=Cc3cccnc3)sc2c1
18	COc1ccc(CNCCNC(=O)c2cccs2)c(OC)c1OC
19	CCOc1ccc(CCNC(=O)C2CC(=O)N(c3ccc4c(c3)OCCO4)C2)cc1OCC (stereo not given)
20	COc1cccc(C(=O)NC(=O)Nc2nc(C)cc(C(F)(F)F)n2)c1
21	O=C(Nc1cccc(-n2cnnn2)c1)c1cccs1
22	Cc1c(-c2nc(-c3cccnc3)no2)cccc1[N+](=O)[O-]
23	O=C(COC(=O)[C@@H]1CCCN1S(=O)(=O)c1ccccc1F)NCc1ccc2c(c1)OCO2
24	CCOc1ccc(N2CC(C(=O)NCCc3ccc(OC)c(OC)c3)CC2=O)cc1 (stereo not given)

entry no.	17	18	19	20	21	22	23	24
Bead autofluor	nt	4797	5648	4899	4296	4240	?	nt
PrP UTR inh	nt	-21	-13	-2	3	-34	-11	-6
Mtb hypoxia rep	20	-8	-5	1	6	0	-4	15
Sa ugtP lethal	-1	-6	1	4	2	9	8	-4
Mtb hypoxia rep growth	10	-5	-2	6	-3	11	0	-18
BJeLR lethal	nt	2	0	-6	4	-13	nt	-7
RN4220 kill	4.4	3.9	-0.8	4.1	8.2	13	6.2	-19

# Sorted by SMILES length (high to low): some entries from above.
17	COc1ccc2c(Cl)c(C(=O)NN=Cc3cccnc3)sc2c1
18	COc1ccc(CNCCNC(=O)c2cccs2)c(OC)c1OC
21	O=C(Nc1cccc(-n2cnnn2)c1)c1cccs1

entry no.	17	18	21
Bead autofluor	nt	4797	4296
PrP UTR inh	nt	-21	3
Mtb hypoxia rep	20	-8	6
Sa ugtP lethal	-1	-6	2
Mtb hypoxia rep growth	10	-5	-3
BJeLR lethal	nt	2	4
RN4220 kill	4.4	3.9	8.2

# (further entries)
25	O=C(CCc1ccccc1)Nc1nc2n(n1)C(c1ccc(Cl)cc1)CC(=O)N2 (stereo not given)
26	CN(c1ccccc1)S(=O)(=O)c1cc(Cl)ccc1Cl
27	O=C(CC(=O)NN=Cc1ccccc1)NCCc1ccccc1
28	COc1ccc(S(=O)(=O)Nc2ccc3c(c2)OCO3)cc1
29	COc1ccc(-c2nn(C)c(=O)c3ccccc23)cc1NC(=O)Cn1nc(-c2ccccc2)c2ccccc2c1=O
30	Cn1ncc([N+](=O)[O-])c1C(=O)Nc1ccc(-c2nc3ccccc3[nH]2)cc1
31	COc1cccc(C(=O)N(CN2CCCC2=O)c2cc(C)on2)c1
32	O=[N+]([O-])c1nn(-c2ccc(Cl)cc2)n(O)c1=NCc1ccccc1

entry no.	25	26	27	28	29	30	31	32
Bead autofluor	3109	2491	nt	5819	4406	5625	22265*	4875
PrP UTR inh	-7	-20	nt	-16	-9	-74	1	nt
Mtb hypoxia rep	16	14	-5	17	6	-3	2	16
Sa ugtP lethal	-10	17	0	9	-11	-9	0	1
Mtb hypoxia rep growth	11	-1	3	8	7	12	2	13
BJeLR lethal	-5	-4	nt	-1	-8	3	0	6
RN4220 kill	-15	11	-3.3	8.9	0.0	7.2	0.5	3.0

33	CCOC(=O)N/N=C\c1cccc(OC)c1OC/C=C/c1ccccc1
34	N#Cc1ccc(CSc2nnc(NC(=O)C3CC(=O)N(c4ccc5c(c4)OCCO5)C3)s2)cc1 (stereo not given)
35	CCCCCN1CC(=O)N2[C@@H](Cc3c([nH]c4ccccc34)C2(C)C)C1=O
36	Cc1ccn2c(=O)c(C(=O)NCCCN3CCCCC3C)c(O)nc2c1 (stereo not given)
37	COc1cccc(CNC(=S)NC2CC2)c1
38	O=C1NCC(c2ccccc2)N(CCc2cccc3ccccc23)C1=O (stereo not given)
39	CN(C)S(=O)(=O)Oc1cccc(C(=O)Nc2ccccc2Cl)c1
40	CCc1cccc(OCCCCN(CC)CC)c1

entry no.	33	34	35	36	37	38	39	40
Bead autofluor	?	2503	3207	6094	4393	nt	8949	4456
PrP UTR inh	-14	-2	16	-12	-19	nt	-46	6
Mtb hypoxia rep	nt	nt	3	3	1	-5	-1	nt
Sa ugtP lethal	nt	nt	1	5	-1	0	10	1
Mtb hypoxia rep growth	nt	nt	-3	-1	-4	6	7	nt
BJeLR lethal	3	2	0	-8	1	nt	4	9
RN4220 kill	nt	nt	3.8	3.6	-4.9	3.7	2.3	5.1

41	COc1cc(C(=O)NCC(c2cccnc2)N2CCN(c3ccccc3)CC2)cc(OC)c1OC (stereo not given)
42	CCc1ccc(NC(=O)C2=CC(c3ccc(OC)c(OC)c3)=NS(=O)(=O)N2C)cc1
43	CC1=N/C(=C\c2ccc(OC(C)C)cc2)C(=O)N1c1ccc(C(=O)O)cc1
44	COc1cc(C(=O)N2CCN(c3ccccc3)CC2)c2ccccc2n1
45	O=C(COc1ccc(S(=O)(=O)NC2CCCCC2)cc1)NC1CC1
46	CCN(CC(=O)Nc1ccc(NC(C)=O)cc1)C(=O)CCCOc1ccc(C(C)(C)C)cc1
47	O=c1[nH]c(/C(=N\O)c2ccccc2)no1
48	Nc1ccc(CCc2ccc(N)cc2)cc1

entry no.	41	42	43	44	45	46	47	48
Bead autofluor	5997	5244	2166	3926	4567	?	2941	3461
PrP UTR inh	-4	-6	-8	75*	-5	-28	-24	-33
Mtb hypoxia rep	4	-1	8	11	5	-1	nt	12
Sa ugtP lethal	2	-3	-2	8	-6	10	nt	3
Mtb hypoxia rep growth	7	6	7	8	4	5	nt	-3
BJeLR lethal	-6	10	-1	nt	6	-1	2	1
RN4220 kill	-13	7.8	2.9	3.0	1.6	0.0	nt	3.5

49	COc1ccc2[nH]cc(C(=O)NCCc3ccccc3)c(=O)c2c1
50	O=C(NCCNc1ccc([N+](=O)[O-])cc1)c1cc(F)c(F)cc1Cl
51	CCc1c(O)nc(SC2CC(=O)N(c3ccc(F)c(Cl)c3)C2=O)[nH]c1=O (stereo not given)
52	COc1ccccc1N1CCN(C2CCCN(C(=O)c3oc(C)cc3C)C2)CC1 (stereo not given)
53	Cc1cc(CN2CCCC(CNC(=O)c3ccc(F)cc3)C2)cc(C)c1O (stereo not given)
54	COC(=O)c1sccc1NC(=O)c1cc(-c2ccc(C)cc2)nc2ccccc12
55	O=C(NN=Cc1cccc(OC(=O)c2cccc(Br)c2)c1)c1ccncc1
56	CCOc1ccc(N2CC(C(=O)Nc3nnc(SCCOC)s3)CC2=O)cc1 (stereo not given)

entry no.	49	50	51	52	53	54	55	56
Bead autofluor	nt	3583	2995	4361	3443	2623	nt	5396
PrP UTR inh	-20	nt	-18	-12	4	-3	nt	-6
Mtb hypoxia rep	2	5	-4	8	4	nt	3	14
Sa ugtP lethal	-5	0	3	6	8	-4	4	3
Mtb hypoxia rep growth	-3	9	8	-3	5	nt	-1	3
BJeLR lethal	-5	3	-1	-2	1	0	nt	3
RN4220 kill	2.1	1.2	2.8	0.6	3.4	-6.1	-1.7	3.4

57	COc1ccccc1N1CCN(C2CCCCC2NS(=O)(=O)c2ccc(Cl)cc2)CC1 (stereo not given)
58	Cc1cc(=O)c2ccc(Cl)cc2[nH]1
59	CCC1CCCCN1c1ccc([N+](=O)[O-])cc1C=NNC(=O)Cn1c2ccccc2c(=O)c2ccccc21 (stereo not given)
60	CC(C)Cn1cnc2c(SCc3ccccc3F)nc(N)nc21
61	Cn1cccc1/C=N/N1CCN(Cc2ccccc2)CC1
62	O=C(CSc1nc2ccccc2s1)Nc1cc(C(=O)O)cc(C(=O)O)c1
63	CCOC(=O)c1ccc(CNCc2ccc(C)cc2)cc1
64	CCN(CCCNC(=O)CC1Oc2ccc(C)cc2NC1=O)Cc1ccccc1 (stereo not given)

entry no.	57	58	59	60	61	62	63	64
Bead autofluor	4236	3628	nt	3528	4525	4518	2622	4547
PrP UTR inh	-3	-4	nt	-87	-18	-3	-39	-9
Mtb hypoxia rep	5	10	3	12	nt	5	0	nt
Sa ugtP lethal	6	-9	-4	4	nt	10	18	4
Mtb hypoxia rep growth	-5	9	2	12	nt	3	3	nt
BJeLR lethal	-9	9	nt	nt	1	-4	-4	-10
RN4220 kill	1.0	4.2	2.9	6.6	nt	-2.2	6.2	2.7

# Copied from the list.
# Entry of O=c1[nH]c(/C(=N\O)c2ccccc2)no1 in Bead autofluor: 2941
# Entry of COc1ccc(N2CCN(C3CCCN(C(=O)c4ccoc4)C3)CC2)cc1 (stereo not given) in RN4220 kill: 0.5

# Continued:
65	CC(C)(C)OC(=O)NCC(=O)N1CCC(C(=O)O)CC1
66	O=C(Nc1ccccc1Cl)c1cc(=O)c2ccccc2o1
67	CN(C)S(=O)(=O)c1cccc(C(=O)Nc2cc(S(=O)(=O)N3CCOCC3)ccc2O)c1
68	Cc1ccc(-c2nnn(Cc3nc4ccccc4s3)n2)cc1

entry no.	65	66	67	68
Bead autofluor	3532	4437	5011	21007*
PrP UTR inh	-2	-44	-21	-22
Mtb hypoxia rep	nt	15	-1	-14
Sa ugtP lethal	3	8	5	34
Mtb hypoxia rep growth	nt	1	2	-1
BJeLR lethal	3	-3	nt	11
RN4220 kill	2.6	6.1	5.7	-5.9
